High-throughput results (PubChem)
StopGo reporter: FMDV 2A StopGo reporter, luciferase signal; human cells with a luciferase reporter of 2A StopGo recoding; control for the full effect not named in the record; Potency, µM (series often up to 57.9 µM), without a hit: at the highest dose signal change, negative = less light; 1.2% of 410,000 active; AID 1159524; active = well fitted falling curve with a large enough effect; inconclusive = small, poorly fitted or top-dose-only effect; inactive = no such curve, though single readings can be large or run the other way; tested in HEK293T cells; further: nearly all actives have a fitted effect of over 45% in size; luciferase light after 4 h
RE007 growth inh: less growth of the S. pombe RE007 Vpr strain; S. pombe RE007 Vpr strain, BacTiter-Glo ATP luminescence, 24 h; control for the full effect not named in the record; AID 651644; 0.21% of 360,000 active; Potency, µM (top dose mostly 92.2 µM), for inactives: top-dose activity change, negative = less growth; active = well fitted falling curve with a large enough effect; inconclusive = small, poorly fitted or top-dose-only effect; inactive = no such curve, though single readings can be large or run the other way;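 further: nearly all actives have a fitted effect of over 50% in size; the assay follows cell death caused by Vpr and the record does not say whether a fall means rescue or toxicity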
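Fission yeast RE007 carrying one integrated HIV-1 vpr copy, seeded at OD 0.01 in PMG+AL medium with 23 nL pinned compound. Grown 24 h at 30 degrees; viability read by BacTiter-Glo luminescence after 5 min.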
* hit, by the source's call; ? = inconclusive; [ ] = another dose, or the depositor's remark. On the % scale 0 is the no-effect control and ±100 the full control effect; potency means the concentration at half of the fitted maximal effect. The list is partial. The share of hits here may be higher or lower than overall.

SMILES	StopGo reporter	RE007 growth inh
COC(=O)[C@]1(Cc2ccccc2)N[C@H](c2ccc(-c3cccc(Cl)c3)c(OC)c2)[C@@H]2C(=O)N(C)C(=O)[C@@H]21	-27%	-11%
C[C@H](O)[C@@H]1C(=O)N2CCc3ccc(N4CCN(C)CC4)cc3[C@@H]2C[C@@H]1N(C)C(=O)NC1CCCCC1	-11%	9%
CN(C)c1ccc(CNC(=O)C2(C)Cc3c(-c4ccc5c(c4)OCO5)ccnc3O2)cc1 (stereo not drawn)	?	-10%
Cc1cccc(C)c1-n1nnnc1C(CCc1ccccc1)N1CCC2(CC1)C(=O)NCN2c1ccccc1 (stereo not drawn)	0%	-4%
CCOC(=O)C1=CCC(c2ccccc2C)N(S(=O)(=O)c2ccc(C)cc2)C1 (stereo not drawn)	-2%	9%
COc1cc2sc3ccc(C#CC4(O)CCCCC4)cc3c(=O)c2cc1OC	0%	-8%
NNC(=O)CNC(=O)Nc1n[nH]c(=S)s1	5%	14%
COc1ccccc1C1=NOC(C)(c2sc(-c3ccccc3)nc2C)C1 (stereo not drawn)	14%	-24%
Fc1ccc(-c2nc3ccc(Cl)cn3c2Cc2ccsc2)cc1	1%	-13%
CCCCC(=O)N(C)c1c(C)nc2ccc(C(=O)N3CCN(C(C)=O)CC3)cn12	-18%	8%
Cc1cccc(N2CCN(C3C(=O)Nc4ccccc4-n4nnnc43)CC2)c1C (stereo not drawn)	-15%	9%
COC(=O)[C@@]12C[C@@H](CC(=O)NCc3ccc(OC)c(OC)c3)C(=O)N(CCc3ccc(OC)c(OC)c3)C1=CCC(C)(C)C2	-12%	-1%
Cc1ccc(Cc2c(-c3cccc(Cl)c3)nc3c(C)cc(Br)cn23)cc1	-10%	-7%
CCOc1ccccc1/C=N/NC(=O)c1nnn(-c2nonc2N)c1CN1CCCCCC1	-17%	-1%
FC(F)(F)c1cccc(-c2cc3nc(NCCCn4ccnc4)ccn3n2)c1	13%	4%[18.4 µM]
COC(=O)[C@@]12C[C@@H](CC(=O)NCc3ccc(OC)c(OC)c3)C(=O)N(Cc3cccc4ccccc34)C1=CCC(C)(C)C2	-29%	0%
CC[C@H](C)[C@H]1CNC(=S)N1CC1CCN(CCC(C)C)CC1	-7%	2%
CCNC(=O)C1CCCN(C(=O)c2cc(OC)c(OC)c(OC)c2)CC1 (stereo not drawn)	3%	3%[18.4 µM]
COc1cccc(Cn2cnc(-c3ccccc3OC)c2-c2cccnc2)c1	-5%	-3%
CCCNC(=O)C1(C)CCN(C(=O)c2cc(C)nn2C(C)(C)C)C1 (stereo not drawn)	-10%	7%[18.4 µM]
O=C(NCc1ccccc1F)Nc1nnc([C@@H]2C[C@H](O)[C@@H](CO)O2)s1	1%	6%[18.4 µM]
CCC/C=C/c1ccc(CN2C(C)C(=O)N(Cc3cn(CCOCOC)nn3)CCS2(=O)=O)cc1 (stereo not drawn)	-22%	-2%
CCOC(=O)Cc1ccc(Nc2nc(NCc3ccccc3)nc3ccsc23)cc1	28µM*	-24%[18.4 µM]
Cc1cccc(N/N=C/c2c(O)[nH]c(=S)[nH]c2=O)c1	?	10%

Reformatted: results already given.
Each structure is followed by: StopGo reporter, RE007 growth inh
COc1cccc(Cn2cnc(-c3ccccc3OC)c2-c2cccnc2)c1
 : -5%, -3%
Cc1cccc(C)c1-n1nnnc1C(CCc1ccccc1)N1CCC2(CC1)C(=O)NCN2c1ccccc1 (stereo not drawn)
 : 0%, -4%

Later entries
SMILES	StopGo reporter	RE007 growth inh
CCCCNc1c(-c2cccc(OC)c2)nc2nc(C)cc(C)n12	-21%	-26%
CN(c1ccccc1)S(=O)(=O)c1cccc(C(=O)NCC(c2cccs2)N2CCOCC2)c1 (stereo not drawn)	?	7%
CCOC(=O)N1CCC2CC1c1cc(-c3cccc(OC)c3)ccc12 (stereo not drawn)	?	-15%
O=C(O)c1ccn[nH]1	-13%	9%
N=c1ccn2c(n1)O[C@H]1[C@@H](CO)[C@H](O)O[C@H]12	-20%	8%[18.4 µM]
CCCNC(=O)N1C[C@H](O)COC[C@H]2O[C@@H](CC(=O)N[C@@H]3CCN(Cc4ccccc4)C3)CC[C@@H]21	-2%	-7%
Nc1ncnc2c1ncn2[C@@H]1O[C@H](C(=O)N2CCN(c3nc4ccccc4o3)CC2)[C@@H](O)[C@H]1O	-21%	1%
CC(=O)Nc1cc(-c2ccccc2)cn2c(-c3ccc(F)c(Cl)c3)cnc12	0%	12%
CC(Oc1ccccc1)C(=O)N1CCN(S(=O)(=O)c2ccc(OC(F)(F)F)cc2)CC1 (stereo not drawn)	-30%	-2%
CC(=O)Nc1cc(-c2ccccc2N(C)C)cn2c(-c3ccccc3)cnc12	-9%	-20%[18.4 µM]
C[C@H](c1ccccc1)N1C[C@@H](COCc2ccccc2)Oc2cc(N3CC[C@@H](N(C)C)C3)ccc2S1(=O)=O	4%	-1%
COc1cccc(CN(C)C(=O)CC[C@H]2O[C@@H](n3ccc(=O)[nH]c3=O)[C@H](O)[C@@H]2O)c1	-1%	2%
C#CCCOC(=O)N1C2=NC(C(=O)OC)=C(C(=O)OC)[C@@H]3N(C)c4ccc(OC)cc4[C@]23C[C@H]1C(=O)OC	-5%	7%
CC1(C(=O)O)CCCN1C(=O)c1cccc(C(F)(F)F)c1 (stereo not drawn)	-6%	-4%
C=CCOC(=O)C1=C[C@H](c2ccc3c(c2)OCO3)C[C@H](OCCCCO)O1	23%	3%
O=C(COC(=O)c1cccnc1Cl)Nc1ccc(N2CCOCC2)cc1	10%	-6%
CCN(CC)S(=O)(=O)c1ccc(N2CCN(C)CC2)c(NC(=O)CN2C(=O)NC3(CCCCC3)C2=O)c1	-15%	-1%
CC1(C(=O)Nc2cccc3cccnc23)CCN1Cc1csc2ccccc12 (stereo not drawn)	0%	5%
CC(C)C[C@@H](CN1CCC[C@H]1CN1C(=O)C(=O)NC[C@@H]1Cc1ccc(O)cc1)N1C[C@H](Cc2ccccc2)N(CCc2ccccc2)C(=O)C1=O	32%[activator]	2%
COCCN1CCN(C(=O)c2ccc3c(c2)S(=O)(=O)c2ccccc2C3=O)CC1	7%	-8%
O=C1C[C@@H]2c3c(cccc3CN1Cc1ccccc1F)C[C@@H](O)[C@H]2O	-10%	10%
Cc1ccccc1CNC(=O)c1csc([C@@H]2O[C@H](CO)[C@@H](O)[C@H]2O)n1	-24%	8%
CCCCCCCCN1C(=O)[C@H](CC(=O)NCCCOC)C[C@@]2(C(=O)OC)CCCCC=C12	0%	-12%
NC(=S)NN=Cc1nccc2c(N)cccc12	38%[activator]	6%

Nothing new here: 7 of the compounds above.
SMILES	StopGo reporter	RE007 growth inh
COC(=O)[C@]1(Cc2ccccc2)N[C@H](c2ccc(-c3cccc(Cl)c3)c(OC)c2)[C@@H]2C(=O)N(C)C(=O)[C@@H]21	-27%	-11%
C[C@H](O)[C@@H]1C(=O)N2CCc3ccc(N4CCN(C)CC4)cc3[C@@H]2C[C@@H]1N(C)C(=O)NC1CCCCC1	-11%	9%
CN(C)c1ccc(CNC(=O)C2(C)Cc3c(-c4ccc5c(c4)OCO5)ccnc3O2)cc1 (stereo not drawn)	?	-10%
Cc1cccc(C)c1-n1nnnc1C(CCc1ccccc1)N1CCC2(CC1)C(=O)NCN2c1ccccc1 (stereo not drawn)	0%	-4%
CCOC(=O)C1=CCC(c2ccccc2C)N(S(=O)(=O)c2ccc(C)cc2)C1 (stereo not drawn)	-2%	9%
COc1cc2sc3ccc(C#CC4(O)CCCCC4)cc3c(=O)c2cc1OC	0%	-8%
NNC(=O)CNC(=O)Nc1n[nH]c(=S)s1	5%	14%

Additional compounds follow:
SMILES	StopGo reporter	RE007 growth inh
COC(=O)C1=C(c2ccc(S(C)(=O)=O)cc2)C[C@@H]2CC[C@H]1N2C(=O)NC1CCCCC1	-18%	-2%
C[C@H]1COc2cc(N3CCC[C@H]3CO)ccc2S(=O)(=O)N1	-18%	0%
Cc1ccc(-c2ccc3c(c2)O[C@H](CN(C)C(=O)Nc2ccc(C(F)(F)F)cc2)[C@H](C)CN([C@H](C)CO)S3(=O)=O)cc1	77%[activator]	3%
Cc1ccc(S(=O)(=O)N2C[C@H]3C(=O)C[C@@H](c4ccccc4)N(S(=O)(=O)c4ccccc4[N+](=O)[O-])[C@H]3C[C@H]2c2ccccc2)cc1	-12%	-16%
C[C@H]1Cn2cnc(C(=O)Nc3ccc(CNC(=O)OC(C)(C)C)cc3)c2C(=O)N1	-14%	-23%
CC1(C(=O)NCc2ccccc2)CN(S(C)(=O)=O)CC(=O)N1C1CC1 (stereo not drawn)	-11%	11%
C=C1C[C@@H]2C[C@@H]2CN(S(=O)(=O)c2ccc(C)cc2)[C@@H]1COCc1ccccc1	-13%	6%
CCC1(CC)C(=O)C2=C3C1[C@H](C(=O)OC)C=C(C(=O)OC)C[C@H]3[C@H]1C(=O)NC(=O)[C@H]1[C@H]2C (stereo partly drawn)	-15%	13%
CCOC(=O)[C@]12CCCC=C1N(Cc1cccc3ccccc13)C(=O)[C@H](CC(=O)NCC13CC4CC(CC(C4)C1)C3)C2	-1%	-6%
COC(=O)C1=C(c2cccc(OC)c2OC)C[C@@H]2CC[C@H]1N2C(=O)NCC1CC1	3%	?
COc1ccc(NC(=O)C2Cc3c(-c4ccc(NC(C)=O)cc4)ccnc3O2)cc1OC (stereo not drawn)	-14%	-10%[18.4 µM]
COc1cccc(CN2C(=NC(=O)C3CCCO3)SC3CS(=O)(=O)CC32)c1 (stereo not drawn)	-10%	-4%
Cc1ccc(S(=O)(=O)NN=C2CCc3ccccc32)cc1	0%	-18%
COC(=O)c1ccc2nc(-c3ccc(OC)c(OC)c3)c(Cc3ccccc3)n2c1	-20%	-20%
CCCCCNC(=O)C(c1cccc2ccccc12)n1c(=O)c(-c2ccccc2)nc2ccccc21 (stereo not drawn)	0%	-1%
CCOc1ccc(S(=O)(=O)NCCC(=O)NCC(c2ccc(OC)cc2)N2CCOCC2)cc1 (stereo not drawn)	-1%	-8%
COc1ccc(-c2cnc3c(NC=O)cc(-c4ccc(S(C)(=O)=O)cc4)cn23)cc1OC	-20%	-9%
O=C1NC[C@H](CCCCN2C[C@H](Cc3ccccc3)N(CCC3CCCCC3)C(=O)C2=O)N(CC2CCCCC2)C1=O	-17%	21%
CC1(C(=O)NS(=O)(=O)Cc2ccccc2)CCN1C(=O)Cc1ccccc1 (stereo not drawn)	-6%	6%
CCOC(=O)C1C2C=CC(CC2)N1c1ccccc1 (stereo not drawn)	-19%	3%
Cc1cccc(S(=O)(=O)N(C)C[C@@H]2OCc3cnnn3CCCC(=O)N([C@H](C)CO)C[C@@H]2C)c1	-1%	-18%
COc1ccc(CC(N)c2csc(NC(=O)c3cccs3)n2)cc1 (stereo not drawn)	-7%	-25%[18.4 µM]
COc1ccc(C(C)=O)cc1CN1C(=O)C(C)ON=C1c1ccccn1 (stereo not drawn)	-6%	1%[18.4 µM]
C[C@@H]1CN([C@@H](C)CO)C(=O)c2cc(Br)cnc2O[C@H]1CN(C)Cc1cccnc1	-20%	10%
CC(C)(C)n1nnnc1C(c1ccccc1)N1CCC2(CC1)C(=O)NCN2c1ccccc1 (stereo not drawn)	-6%	-7%
COC(=O)Cc1ccc(OC2(C)CCN(Cc3ccc(-c4ccccn4)cc3)C2)cc1 (stereo not drawn)	-21%	-17%
CC1=C(C(=O)N2CCOCC2)CC(CC(=O)NC2CCCCC2)C(=O)N1Cc1ccc(C(C)(C)C)cc1 (stereo not drawn)	-3%	-8%
CCN(Cc1ccc(Br)s1)C(=O)CSc1nnc(C2CC2)n1C1CC1	0%	-3%
CC1(C(=O)NC2CCc3ccccc32)CCN1CCc1ccccc1 (stereo not drawn)	-20%	-21%
C=CCC(NC(=O)N(C)C)(C(=O)OC)C(C)O (stereo not drawn)	-10%	0%
CC1(C(=O)NS(=O)(=O)c2cccc(F)c2)CCN1C(=O)Cc1ccccc1 (stereo not drawn)	-11%	-1%[18.4 µM]
Cc1onc(-c2ccccc2)c1-c1nnc(COC(=O)c2ccc(F)cc2)o1	-22%	2%
C=CCn1c(SCC(=O)Nc2c(C)n(C)n(-c3ccccc3)c2=O)nnc1-c1ccncc1	-12%	1%
Cc1cc(F)ccc1C(O)c1ncc(-c2ccc(Cl)cc2)[nH]1 (stereo not drawn)	-1%	-5%
CC1(C(=O)NCc2ccccc2Br)CCN1C(=O)C1(c2ccc(Cl)cc2)CC1 (stereo not drawn)	-8%	8%[18.4 µM]
C[C@@H]1CN([C@H](C)CO)C(=O)CCCn2nncc2CO[C@@H]1CN(C)C(=O)CCC(F)(F)F	-1%	1%
CCCCN1C(=O)C(CC(=O)NCCCCc2ccccc2)CC(C(=O)N2CCOCC2)=C1C (stereo not drawn)	-28%	-12%
O=C(Nc1ccn(CCCN2CCN(c3ncccn3)CC2)c(=O)n1)OCc1ccccc1	-28%	-10%
CCNC(=O)C[C@@H]1CC[C@H]2[C@@H](COC[C@H](O)CN2C(=O)C2CC2)O1	-6%	-2%
